LASV entry inh: qHTS for Inhibitors of binding or entry into cells for Lassa Virus; Lassa virus pseudotype entry inhibition, cell reporter; control for the full effect not named in the record; AID 540256, 2011; Potency, µM (top dose mostly 37.9 µM), inactives show top-dose activity change, negative = inhibition, usual class: inhibitors; 300,000 compounds, 1.2% hits; active means well fitted inhibition curve with a large enough effect; inconclusive means small, poorly fitted or top-dose-only effect, or effect the other way; inactive means flat fitted curve, though single readings scatter; tested in HEK293 cells; also: % is scaled to controls: 0 for no effect and ±100 for the full control effect; nearly all actives have a fitted effect of over 50% in size; luciferase read-out
Marburg entry inh: qHTS for inhibitors of binding or entry into cells for Marburg Virus | Marburg virus pseudotyped entry inhibition, cell reporter; control for the full effect not named in the record; about a third of the inactives were read at about 46 µM | Potency, µM (doses to about 37.8 µM), for inactives: at the highest dose activity change, negative = inhibition, hits mostly inhibitors | 300,000 compounds, 1.8% hits | AID 540276, 2011; active = well fitted inhibition curve with a large enough effect; inconclusive = small, poorly fitted or top-dose-only effect, or effect the other way; inactive = flat fitted curve, though single readings scatter; tested in HEK293 cells; about a fifth of its hits are not listed in these tables; also: % is scaled to controls: 0 for no effect and ±100 for the full control effect; luciferase read-out
Cruzain inh Det: qHTS Assay for Promiscuous and Specific Inhibitors of Cruzain (with detergent). Cruzipain (Trypanosoma cruzi), P25779. purified cruzain, Z-FR-AMC fluorescence, 0.01% Triton. Potency, µM, without a hit: max response, negative = inhibition, actives largely listed as inhibitors. 200,000 compounds, 0.43% hits; active = well fitted curve in the direction sought with a large enough effect; inconclusive = small, poorly fitted or top-dose-only effect, or another doubt; inactive = no such curve, though single readings can be large; an effect the other way counts as inactive or inconclusive;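 also: plate controls were neutral wells for no effect and buffer without enzyme for full effect; nearly all actives have a fitted effect of over 40% in size; top concentration of the series not given in the record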
Target sequence (P25779 123-467 limits assumed): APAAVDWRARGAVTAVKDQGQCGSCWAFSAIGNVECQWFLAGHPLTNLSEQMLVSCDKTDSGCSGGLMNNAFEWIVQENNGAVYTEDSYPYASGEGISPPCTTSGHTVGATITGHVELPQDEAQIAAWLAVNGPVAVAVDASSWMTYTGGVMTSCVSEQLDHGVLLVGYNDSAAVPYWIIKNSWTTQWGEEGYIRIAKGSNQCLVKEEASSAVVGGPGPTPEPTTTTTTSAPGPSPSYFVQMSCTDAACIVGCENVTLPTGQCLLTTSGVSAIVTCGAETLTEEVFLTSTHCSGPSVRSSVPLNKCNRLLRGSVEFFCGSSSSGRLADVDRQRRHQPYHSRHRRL
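Purified cruzain (1.5 nM final) was preincubated with compounds for 15 min at room temperature in 100 mM sodium acetate pH 5.5, 5 mM DTT, 0.01% Triton X-100. Reaction started with 2 uM Z-FR-AMC; AMC fluorescence change over 60 s gave activity.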
NS1 function inh: qHTS Assay for Inhibitors of Influenza NS1 Protein Function; S. cerevisiae slowed by influenza A NS1, growth recovery by OD600; Potency, µM (top dose mostly 46.1 µM), for the others: at the highest dose activity, positive = more growth; 270,000 compounds, 0.4% hits; AID 2326, 2010; also: actives are rising curves; nearly all actives have a fitted effect of over 50% in size
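Read-out: OD600 growth recovery of NS1-expressing budding yeast. Cells grown overnight at 30C in -URA glucose medium, washed, resuspended and diluted 1:100 in 2% galactose assay medium, pH 6.0. Same strain lacking NS1 served as positive control.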
RE007 growth inh: qHTS Assay for Inhibitors of the HIV-1 protein Vpr | S. pombe RE007 Vpr strain, BacTiter-Glo ATP luminescence, 24 h; control for the full effect not named in the record | Potency, µM (titrated, usually from 92.2 µM), for the others: at the highest dose activity change, negative = less growth | 360,000 compounds, 0.21% hits | AID 651644, 2012; active = well fitted falling curve with a large enough effect; inconclusive = small, poorly fitted or top-dose-only effect; inactive = no such curve, though single readings can be large or run the other way;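 also: % is scaled to controls: 0 for no effect and ±100 for the full control effect; nearly all actives have a fitted effect of over 50% in size; the assay follows cell death caused by Vpr and the record does not say whether a fall means rescue or toxicity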
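Fission yeast RE007 carrying one integrated HIV-1 vpr copy, seeded at OD 0.01 in PMG+AL medium with 23 nL pinned compound. Grown 24 h at 30 degrees; viability read by BacTiter-Glo luminescence after 5 min.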
SARS PLpro yeast: qHTS of Yeast-based Assay for SARS-CoV PLP; 330,000 compounds, 0.19% hits; S. cerevisiae expressing SARS-CoV PLpro, growth rescue; control for the full effect not named in the record; AID 485353, 2010; Potency, µM (series often up to 32.9 µM), inactives show top-dose activity, positive = growth rescue; also: 0% is about no effect; nearly all actives have a fitted effect of over 55% in size; growth read by luminescence after 48 h
2A StopGo: High Throughput Screening for Foot and Mouth Disease Virus Antivirals | human cells with a luciferase reporter of 2A StopGo recoding; control for the full effect not named in the record | Potency, µM (top dose mostly 57.9 µM), inactives show top-dose signal change, negative = less light | 410,000 compounds, 1.2% hits | AID 1159524, 2015; active = well fitted falling curve with a large enough effect; inconclusive = small, poorly fitted or top-dose-only effect; inactive = no such curve, though single readings can be large or run the other way; tested in HEK293T cells; also: % is scaled to controls: 0 for no effect and ±100 for the full control effect; nearly all actives have a fitted effect of over 45% in size; luciferase light after 4 h
Cruzain inh noDet: qHTS Assay for Promiscuous and Specific Inhibitors of Cruzain (without detergent); 200,000 compounds, 2.3% hits; AID 1476, 2009; Cruzipain (Trypanosoma cruzi), P25779; Potency, µM, inactives show max response, negative = inhibition, actives largely listed as inhibitors; purified cruzain, Z-FR-AMC fluorescence, no detergent; active = well fitted curve in the direction sought with a large enough effect; inconclusive = small, poorly fitted or top-dose-only effect, or another doubt; inactive = no such curve, though single readings can be large; an effect the other way counts as inactive or inconclusive;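 also: plate controls were enzyme without inhibitor for no effect and buffer without enzyme for full effect; nearly all actives have a fitted effect of over 40% in size; top concentration of the series not given in the record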
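Detergent-free condition (0.00005% Triton X-100) in acetate buffer pH 5.5 with DTT. 1.5 nM enzyme and compound were pre-mixed 15 min, then 2 uM Z-FR-AMC substrate added; reaction progress from fluorescence change between first and third reads (60 s).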
An asterisk follows results filed as active; ? = inconclusive; / = no result given; & = joins results of further samples; [ ] = another dose, or the depositor's remark. Unless noted, calls follow the shape of the dose curve; as a rule, active means well fitted rising curve with a large enough effect; inconclusive means small, poorly fitted or top-dose-only effect; inactive means no such curve, though single readings can be large or run the other way. Potency is read from the fitted curve at half-maximal effect.

Order of values: LASV entry inh	Marburg entry inh	Cruzain inh Det	NS1 function inh	RE007 growth inh	SARS PLpro yeast	2A StopGo	Cruzain inh noDet
CCOC(=O)c1cc(-c2ccc(F)cc2)nc2c1c(=O)[nH]c(=O)n2Cc1ccccc1
    12%	-1%[46.1 µM]	/	2%	-10%	-5%	15%	/
Cc1ccc(NS(=O)(=O)c2ccc3c(c2)NC(=O)CCS3)cc1C
    -22%[46.1 µM]	/	-6.4%	-2%	-6%	-5%	-16%&3%	-10%
CN(C)CCCNc1ncnc2c1cnn2Cc1ccccc1Cl
    -4%[46.1 µM]	-11%[46.1 µM]	/	-4%	11%	0%	-14%	/
CCCCSc1ncnc2c1sc1nc(N3CCOCC3)c3c(c12)CCCC3
    1%[46.1 µM]	?	1.4%	/	/	/	0%	4%
COc1ccc([C@@H]2[C@@H]3C(=O)N(C(C)(C)C)C(=O)[C@@H]3[C@]3(C)C(=O)N(c4ccc(C)cc4)C(=O)N23)cc1
    /	/	/	-10%	8%	-2%	-4%	/
Cc1cc(F)c(F)c(C(=O)N2C(C)CCCC2C)c1Cl (configuration not stated)
    /	/	/	-4%	3%	-1%	12%	/
CCOC(=O)c1cnc(-c2ccccc2)nc1Oc1ccc(Cl)c(Cl)c1
    8%	-13%	3.1%	15%	8%	6%	-21%	-7%
CCOC(=O)C1CCN(S(=O)(=O)c2cccc(-c3cn4cccc(C)c4n3)c2)CC1
    ?	?	-3.2%	-64%	1%	-3%	?	?
Cn1cc(S(=O)(=O)N2CCOCC2)cc1C(=O)Nc1cccc(C#N)c1
    17%[46.1 µM]	/	-1.5%	/	/	/	-8%	5%
CC(=O)Nc1ccc2nc(NC(=O)c3ccco3)sc2c1
    /	/	/	-7%	-23%	-17%	35%[activator]	/
CCN(CC)S(=O)(=O)c1ccc2oc(SCC(=O)NCc3ccccc3)nc2c1
    -3%	8%	3.6%	-3%	14%	-6%	?	-2%
CC(=O)Nc1cc2c(cc1Cl)-c1ccccc1C2O (configuration not stated)
    -1%[46.1 µM]	?	/	/	-11%	/	20%	/
CN1/C(=C\C(=O)c2cccc([N+](=O)[O-])c2)Sc2ccccc21
    21%	30%[46.1 µM]	/	-13%	1%	0%	30%	/
O=C(O)c1ccc(Nc2ccc3nonc3c2[N+](=O)[O-])cc1
    0%	2%	/	4%	0%	3%	-2%	/
COc1ccc(Nc2nc3ccccc3c(=O)[nH]2)cc1
    /	/	/	-8%	1%	3%	12%	/
COc1ccc(Nc2ncc3c(n2)CCN(Cc2cccc(F)c2F)C3)c(OC)c1
    8%[46.1 µM]	/	0.8%	/	/	/	-2%	-6%
O=C(CF)NC(NC(=S)Nc1cccc([N+](=O)[O-])c1)C(Cl)(Cl)Cl (configuration not stated)
    -21%	-22%	/	/	-3%	-2%	-24%	/
Cc1ccccc1NS(=O)(=O)c1cc(C(=O)Nc2ccccc2-c2ccccc2)ccc1Cl
    ?	-7%	1.0%	-39%	2%	-10%	10%	?
CC(C)(C)NC(=O)COC(=O)C1c2ccccc2Oc2ccccc21
    1%[46.1 µM]	-18%[46.1 µM]	/	-39%	8%	-6%	17%	/
CCOC(=O)c1cnn(-c2c(Cc3ccccc3)c(C)nc3c(-c4ccccc4)c(C)nn23)c1N
    -17%	-11%	-1.8%	1%	-20%	-23%	-27%	-11%
CCC(=NCc1ccco1)c1c(O)n(Cc2ccccc2)c(=O)[nH]c1=O
    ?	-17%	0.0%	-132%	12%	8%	?	-13%
O=C(NCc1cccs1)c1ccc2c(c1)N(Cc1cccc(F)c1)C(=O)c1ccccc1S2
    6%[46.1 µM]	/	-3.6%	/	/	/	-6%	?
CC1CCN(c2nc(CN3CCCCC3)nc3scc(-c4ccccc4)c23)CC1
    ?	?	-3.8%	-18%	6%	-13%	32µM*	-11%
Cc1ccc(/C=C2\SC(=S)N(CC3CCCO3)C2=O)o1 (configuration not stated)
    -2%	21%[46.1 µM]	/	1%	2%	-2%	32%[activator]	/
COc1ccc(CCNC(=O)CSCc2ccc([N+](=O)[O-])cc2)cc1
    4%	-5%	-1.2%	-4%	/	-2%	-26%	4%
O=C(CN1CCOCC1)NN1CC(=O)N(c2ccc(Cl)cc2)CC1=O
    10%	14%[46.1 µM]	/	3%	-1%	0%	-4%	/
OCCNC(=S)NCCc1ccccc1
    -8%	3%	0.0%	8%	-15%	4%	6%	-3%
CCNC(=O)COC(=O)c1ccc(-n2nc(C)cc2C)cc1
    27%	13%[46.1 µM]	/	-4%	-29%	-1%	-1%	/
CNC(=O)c1csc(-c2ccc(Cl)cc2)n1
    7%	-1%[46.1 µM]	/	-3%	-16%	-2%	36%[activator]	/
COc1ccc(C2C(C(=O)N3CCN(c4ccccn4)CC3)CCC(=O)N2c2cc(OC)c(OC)c(OC)c2)cc1 (configuration not stated)
    -3%[46.1 µM]	-11%[46.1 µM]	/	/	-13%	2%	1%	/

Going on with the list.
Order of values: LASV entry inh	Marburg entry inh	Cruzain inh Det	NS1 function inh	RE007 growth inh	SARS PLpro yeast	2A StopGo	Cruzain inh noDet
COc1ccc(CCn2c(C)cc(C(=O)CSc3nnc(N)s3)c2C)cc1
    ?	?	-3.3%	?	6%	1%	28µM*	?
COc1ccc(COc2cccnc2N)cc1
    /	/	/	-2%	-7%	2%	32%[activator]	/
O=C(OCC(=O)N1CCCC1=O)c1cccc([N+](=O)[O-])c1
    /	/	/	7%	0%	-2%	5%	/
C=CCNCCCOc1ccc(C(C)(C)c2ccccc2)cc1
    ?	?	-0.7%	-9%	13%	-13%	-9%	7%
O=C(Nc1ccc2c(c1)OCO2)C(c1ccc(Cl)cc1)N1CCN(C(=O)c2ccco2)CC1 (configuration not stated)
    -15%	4%&-16%	-0.5%	-55%	-9%	-2%	-15%	3%
O=C(CN1CCN(Cc2ccc(Cl)cc2)CC1)N/N=C/c1cccs1
    5%	2%	/	-2%	-6%	0%	?	/
Cc1ccc(Nc2cc(C)c3ccc(O)cc3n2)cc1C
    /	/	/	-52%	2%	-1%	-3%	/
COc1ccc(NC(=O)[C@@H](NC(=O)N2C[C@H]3C[C@@H](C2)c2cccc(=O)n2C3)C(C)C)cc1OC
    /	/	/	-5%	5%	-9%	-10%	/
CCCCNS(=O)(=O)c1ccc2nc(NC(=O)c3cccnc3)sc2c1
    -29%[46.1 µM]	/	1.6%	/	/	/	94%[activator]	17%
CC(C)(C)c1cc2cccnc2n1Cc1ccccc1
    -7%	?	2.0%	-10%	6%	-10%	?	2%
CCC(=O)N1c2ccc(S(=O)(=O)N3CCN(c4ccccc4Cl)CC3)cc2CC1C (configuration not stated)
    ?	-14%&-14%[46.1 µM]	-3.8%	-7%	-1%	0%	-28%&-17%	-24%
Cc1cc(Oc2ccccc2)nc2ccc(O)cc12
    /	2%	-6.5%	-115%	/	-6%	/	6%
Cn1c(N2CCN(C(=O)C34CC5CC(CC(C5)C3)C4)CC2)nc2ccccc21
    /	/	-0.2%	-4%	/	0%	/	-5%
Cc1ccc(N(CC(=O)NCc2ccncc2)S(C)(=O)=O)cc1Cl
    2%	?	0.1%	-2%	9%	21%	5%	-7%
Cc1cccc(N2CCN(c3nc4ccccc4c(=O)n3-c3ccc(Cl)cc3)CC2)c1C
    10%[46.1 µM]	6%[46.1 µM]	-1.0%	/	/	/	-11%	-3%
CSc1ccc(C(=O)C2CCCN(C(=O)CCn3cncn3)C2)cc1 (configuration not stated)
    1%	18%	/	2%	-18%	-1%	8%	/
Cc1cccc(NC(=O)C(C)n2cc([N+](=O)[O-])cn2)n1 (configuration not stated)
    14%	?	/	/	29%	1%	0%	/
CCCCc1ccc(S(=O)(=O)NC2CCS(=O)(=O)C2)cc1 (configuration not stated)
    /	/	/	1%	29%	1%	-18%	/
CC(=O)c1cccc(OCC(O)CNCCOc2ccc(C)cc2)c1 (configuration not stated)
    -10%	0%[46.1 µM]	/	15%	-6%	-1%	-4%	/
CC(=O)c1cccc(NC(=O)c2cc(-c3ccc(Cl)s3)nc3ccccc23)c1
    -12%[46.1 µM]	-3%[46.1 µM]	-4.5%	/	/	/	-7%	16%
CCOC(=O)C1CCN(C(=O)c2ccc3c(c2)NC(=O)/C(=C\c2ccc(C)cc2)S3)CC1
    /	/	/	11%	5%	-4%	-15%	/

In a second layout: entries from further up
Structure | LASV entry inh | Marburg entry inh | Cruzain inh Det | NS1 function inh | RE007 growth inh | SARS PLpro yeast | 2A StopGo | Cruzain inh noDet
CCCCc1ccc(S(=O)(=O)NC2CCS(=O)(=O)C2)cc1 (configuration not stated) | / | / | / | 1% | 29% | 1% | -18% | /
CC(=O)c1cccc(OCC(O)CNCCOc2ccc(C)cc2)c1 (configuration not stated) | -10% | 0%[46.1 µM] | / | 15% | -6% | -1% | -4% | /
CC(=O)c1cccc(NC(=O)c2cc(-c3ccc(Cl)s3)nc3ccccc23)c1 | -12%[46.1 µM] | -3%[46.1 µM] | -4.5% | / | / | / | -7% | 16%
